# VDR inhibitor = vitamin D3 receptor (human) inhibition; P11473; VDR-SRC2-3 peptide fluorescence polarization, 2 h; Potency, µM, inactives show max response, negative = inhibition, most hits filed as inhibitors; 0.93% of 400,000 active; active = well fitted inhibition curve with a large enough effect; inconclusive = small, poorly fitted or top-dose-only effect, or another doubt; inactive = no such curve, though single readings can be large or run the other way; note: series mostly up to about 120 µM
# Target sequence (P11473 whole entry, looked up): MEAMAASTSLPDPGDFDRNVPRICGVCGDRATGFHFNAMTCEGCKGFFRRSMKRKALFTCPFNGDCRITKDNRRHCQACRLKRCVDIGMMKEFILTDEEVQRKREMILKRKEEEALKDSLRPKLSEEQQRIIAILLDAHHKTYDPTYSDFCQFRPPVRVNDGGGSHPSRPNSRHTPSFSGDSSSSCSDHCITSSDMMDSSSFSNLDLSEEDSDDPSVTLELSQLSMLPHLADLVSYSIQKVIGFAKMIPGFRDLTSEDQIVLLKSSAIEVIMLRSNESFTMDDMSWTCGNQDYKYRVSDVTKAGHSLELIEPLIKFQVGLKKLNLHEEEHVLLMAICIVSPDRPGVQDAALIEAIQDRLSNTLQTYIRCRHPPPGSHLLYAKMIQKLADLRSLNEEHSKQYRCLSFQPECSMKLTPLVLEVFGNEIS
#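 Measured by FP: displacement of SRC2-3 coactivator peptide from VDR by library compounds, following a two-hour ambient incubation.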
# * = called active by the depositor; u = inconclusive; & = joins results of further samples. % is set by controls: 0 for no effect and ±100 for the full control effect; potency is the fitted concentration of half-maximal effect. Some of the compounds tested; rates above refer to the full screens.
# Preview, 2 compounds:
SMILES,VDR inhibitor
Cc1ccccc1CN(C)C1CCN(C)CC1,-21%
Cn1c(=O)c2c(ncn2CC(N)=O)n(C)c1=O,5%

# The listing (from the top)
SMILES,VDR inhibitor
Cc1ccccc1CN(C)C1CCN(C)CC1,-21%
Cn1c(=O)c2c(ncn2CC(N)=O)n(C)c1=O,5%
COc1ccc2c(c1)O[C@@H](c1cccc(C(F)(F)F)c1)[C@H](OC(=O)NC1CCCC1)C2=O,-10%
COc1cccc(C2C3=C(CCCC3=O)Nc3[nH]n(-c4ccccc4)c(=O)c32)c1 (stereo not drawn),-9%
CC(=O)Nc1cc(C)nn1-c1nc2ccccc2s1,-3%
COc1ccc(NC(=O)COC(=O)CC2CC3CCC2C3)c([N+](=O)[O-])c1 (stereo not drawn),16%
CC(=O)Nc1ccc(S(=O)(=O)NCCC(=O)NCCOc2ccccc2)cc1,2%
CCCCOC(=O)/C(C#N)=C/c1ccc(-c2ccc(Br)cc2)o1,2%
Cc1ccc(Cn2c(=O)n(CCCCC(=O)NCCc3ccc(Cl)cc3)c(=O)c3ccccc32)cc1,-7%
Cc1ccc(NC(=S)NNC(=O)CSc2nnc(-c3ccc(Cl)cc3)n2C2CCCCC2)cc1,13%
CCSC1=C(C#N)C(c2ccc3c(c2)OCO3)C2=C(CCCC2=O)N1 (stereo not drawn),-7%
CCCN(CCC)C(=O)c1c[nH]c2ccc(S(=O)(=O)Nc3cc(C)cc(C)c3)cc2c1=O,2%
O=C(CN1C(=O)NC2(CCCc3ccccc32)C1=O)NCc1cccs1 (stereo not drawn),1%
COC(=O)CN1C(=O)S/C(=C/c2cc(C)n(C)c2C)C1=O,-20%
Cc1n[nH]c(=O)c2c(NC(=O)CSc3ccccc3Cl)oc(C)c12,-26%
COCCCNC(=O)CSc1nc2c(sc3ccccc32)c(=O)n1CCCC(=O)NCC1CCCO1 (stereo not drawn),4%
Cc1ccc2nc(-c3ccncc3)cc(C(=O)Nc3ccc(OC(F)F)cc3)c2c1,8%
O=C(CN1CC(c2ccccc2)CC1=O)OCc1ccccc1F (stereo not drawn),18%
CCOC(=O)/C(=N/Nc1ccc(Cl)cc1)S(=O)(=O)c1ccccc1,5%
CCCOc1ccc(CNC(=O)C2CCN(c3nc4ccccc4nc3C(F)(F)F)CC2)cc1,6%
Cc1cccc(-c2ncc(S(=O)(=O)C(C)(C)C)c(N)n2)c1,-2%
C=CCOC(=O)C1=C(C)NC(C)=C(C(=O)OCC=C)C1c1cccs1,0%
Cc1c(N=Cc2cc3c(cc2Cl)OCO3)c(=O)n(-c2ccccc2)n1C,16%
CCOC(=O)c1sc(NC(=O)CSc2n[nH]c(C)n2)nc1C,14%
O=C(Cc1ccccc1)Nc1ccccc1Oc1ccccc1,u
Cc1ccc(NC(=O)CSc2nc3ccc(Nc4nc(N5CCOCC5)nc(N5CCOCC5)n4)cc3s2)cc1,-1%
CC1CC1C(=O)OCC(=O)NNC(=O)COc1ccc(Br)cc1 (stereo not drawn),14%
Cc1cccc(C(C)C)c1NC(=O)COC(=O)CN1C(=O)C2CC=CCC2C1=O (stereo not drawn),3%
CC(=O)NCc1ccc(C(=O)CSc2nnc(C3CC3)n2C2CC2)cc1,u
COc1ccc(NS(=O)(=O)c2ccc3c(c2)C(C(C)C)C(=O)N3)cc1 (stereo not drawn),-1%
CCCCCCCN(C(=O)CCl)c1cccc(C)c1,u
CCOc1ccc(C(C)NC(=O)Cc2ccccc2)cc1OCC (stereo not drawn),-7%
Cc1cc(C)c2c(=O)n(CC(=O)N3CCC(N4CCCCC4)CC3)sc2n1,20µM*
CCOc1ccc(C(=O)N2CCN(c3ccccn3)CC2)cc1,-3%
Cc1sc2nc(CN3CCOCC3)nc(NS(=O)(=O)c3cc(Cl)ccc3Cl)c2c1C,2%
CCC1(C)Cc2c(sc3nc4n(c(=O)c23)CCS4)CO1 (stereo not drawn),10%
Cc1nn(C(C)C(=O)NCCCN2CCCC2)c(=O)c2nn(-c3ccccc3)c(C)c12 (stereo not drawn),5%
CCOc1ccc(N=C(NC#N)SCC)cc1,12%
Cc1c(Cl)cccc1NC(=O)C(C)n1nnc2sc3c(c2c1=O)CCCC3 (stereo not drawn),11%
Cc1ccc(C2(CCNS(=O)(=O)c3ccc(C)cc3)CCOC(C(C)C)C2)cc1 (stereo not drawn),-18%
Cc1cc(C)c(S(=O)(=O)N2CCCCC2CCNC(=O)C(=O)NCc2ccco2)c(C)c1 (stereo not drawn),-4%
Cc1nnc(SCc2nc3ccccc3nc2C)s1,-11%
CC(C)C1S/C(=N/N=C/c2cccs2)NC1=O (stereo not drawn),5%
CC(C)Cc1nc2oc3c(NCC4CCCO4)ncnc3c2c2c1CCC2 (stereo not drawn),4%
Cc1cc(=O)n2[nH]c(C(=O)O)nc2n1,2%

# As a working copy, some entries already given:
SMILES,VDR inhibitor
CCOc1ccc(C(C)NC(=O)Cc2ccccc2)cc1OCC (stereo not drawn),-7%
Cc1cc(C)c2c(=O)n(CC(=O)N3CCC(N4CCCCC4)CC3)sc2n1,20µM*
CCOc1ccc(C(=O)N2CCN(c3ccccn3)CC2)cc1,-3%
Cc1sc2nc(CN3CCOCC3)nc(NS(=O)(=O)c3cc(Cl)ccc3Cl)c2c1C,2%
CCC1(C)Cc2c(sc3nc4n(c(=O)c23)CCS4)CO1 (stereo not drawn),10%
Cc1nn(C(C)C(=O)NCCCN2CCCC2)c(=O)c2nn(-c3ccccc3)c(C)c12 (stereo not drawn),5%
CCOc1ccc(N=C(NC#N)SCC)cc1,12%
Cc1c(Cl)cccc1NC(=O)C(C)n1nnc2sc3c(c2c1=O)CCCC3 (stereo not drawn),11%
Cc1ccc(C2(CCNS(=O)(=O)c3ccc(C)cc3)CCOC(C(C)C)C2)cc1 (stereo not drawn),-18%
Cc1cc(C)c(S(=O)(=O)N2CCCCC2CCNC(=O)C(=O)NCc2ccco2)c(C)c1 (stereo not drawn),-4%
Cc1nnc(SCc2nc3ccccc3nc2C)s1,-11%
CC(C)C1S/C(=N/N=C/c2cccs2)NC1=O (stereo not drawn),5%
CC(C)Cc1nc2oc3c(NCC4CCCO4)ncnc3c2c2c1CCC2 (stereo not drawn),4%
Cc1cc(=O)n2[nH]c(C(=O)O)nc2n1,2%

# Further structures follow:
SMILES,VDR inhibitor
Fc1ccc(-c2csc3ncnc(N4CCc5ccccc5C4)c23)cc1,-7%
O=C1C(=O)c2ccccc2C(O)=C1C1CCC(c2ccc(Cl)cc2)CC1 (stereo not drawn),-6%&-6%
Cc1ccc2[nH]c3c(c2c1)CCN(C)C3,-1%
O=S(=O)(Nc1nc2ccccc2nc1NCC1CCCO1)c1ccccc1 (stereo not drawn),-6%
O=C(CSc1ncnc2nc[nH]c12)Nc1ccccc1C(F)(F)F,-13%
CCCCN(C)CCNC(=O)c1cc2c(-c3ccccc3F)nn(C)c2s1,-18%
COCOc1cc(OC)ccc1C(=O)/C=C/c1ccc([N+](=O)[O-])cc1,u
COc1cccc2sc3cc(NCc4ccc5c(c4)OCO5)ccc3c(=O)c12,-3%
O=C1CCc2cc(S(=O)(=O)Nc3ccccc3F)cc3c2N1CCC3,-8%
CC(C)CCN(C(=O)c1ccncc1)c1c(N)n(Cc2ccccc2)c(=O)[nH]c1=O,14%
Cc1ccc(CNCc2cc3c(C(C)(C)C)nn(-c4ccccc4)c3[nH]c2=O)cc1,-13%
CC1CN(c2ccc(S(=O)(=O)N3CCCC3)cn2)CC(C)O1 (stereo not drawn),-8%
Cc1cccc(/C=N/n2c(-c3cc(-c4ccccc4)n[nH]3)n[nH]c2=S)c1,-3%
O=C(CNC(=O)C(c1ccccc1)c1ccccc1)N/N=C/c1cccnc1,-18%
Cc1c(C)c2ccc(OCC(=O)NC3CCN(Cc4ccccc4)CC3)cc2oc1=O,-16%
O=C(NC1CCN(Cc2ccc(Cl)cc2)CC1)c1cn(-c2ccccc2)nc1-c1cccnc1,14%
Cc1cccc(C(=O)NNC(=O)c2ccc(S(=O)(=O)N3CCOCC3)cc2)c1,2%
CCN1C(=O)c2ccc(C(=O)Nc3ccc(O)cc3C)cc2C1=O,0%
Fc1ccc(NC(=S)Nc2ccc(Br)cc2)cc1,-3%
O=C(O)c1ccccc1SC1CC(=O)N(C2CCCCC2)C1=O (stereo not drawn),-12%
O=C(c1ccccn1)C1CCCN(Cc2cn[nH]c2-c2cc3ccccc3o2)C1 (stereo not drawn),13%
O=C(C1CCCN1C(=O)c1cccs1)N1CCN(Cc2ccc3c(c2)OCO3)CC1 (stereo not drawn),-1%
O=C(COC(=O)c1ccc(Br)o1)NCc1ccco1,-13%
CCOC(=O)c1c(C)oc2c1c(C=NCCO)c(O)c1ccccc12,-5%
COCc1ccc(CN2CCC(CO)(CC3CCCCO3)CC2)o1 (stereo not drawn),-3%
CCOC(=O)c1noc2nc(C)n(Cc3cccc([N+](=O)[O-])c3)c(=O)c12,-3%
COc1ccc(C/C(N)=N/OC(=O)c2ccco2)cc1OC,-11%
CSc1nc(Sc2ccc(Cl)cc2)c2ccccc2n1,5%
COc1ccc(C(O)P(=O)(OC(C)C)c2ccc(N(C)C)cc2)c(OC)c1 (stereo not drawn),-5%
Cc1ccc(C(=O)O)cc1NC(=O)C1CCCN1S(=O)(=O)c1cccc2nsnc12 (stereo not drawn),-20%
Cc1cccc(/C=C2/S/C(=N/N=C3\CC4CCC3(C)C4(C)C)NC2=O)c1 (stereo not drawn),0%
Clc1ccc(-c2nsc(N3CCOCC3)n2)c(Cl)c1,-2%
CCC1(C(=O)c2ccccc2)C(c2ccc([N+](=O)[O-])cc2)C1(C(=O)OC)C(=O)OC (stereo not drawn),3%
O=C(NCC1CCCO1)c1ccccc1-c1nc(-c2ccc(Cl)cc2)no1 (stereo not drawn),-1%
O=C1CCC/C(=N/NC(=O)c2ccc(CN3c4cccc5cccc(c45)S3(=O)=O)cc2)C1,-4%
Cc1nnn(C23CC4CC(CC(CC(=O)Nc5ccc(C)c(Cl)c5)(C4)C2)C3)n1,-9%
Cc1ccccc1N(C(=O)Cn1nnc2ccccc21)C(C(=O)NCc1ccco1)c1ccncc1 (stereo not drawn),-2%
COC(=O)c1ccccc1NC(=O)C12CC3CC(C1)CC(n1cnc(Cl)n1)(C3)C2,-7%
Cc1ccc(/C=N/NC(=O)c2ccccn2)o1,-19%
Cc1nc(N/N=C/c2ccccc2)nc(N(C)c2ccccc2)c1[N+](=O)[O-],-5%
Cc1cc(NC(=O)COC(=O)COc2cccc3c2OC(C)(C)C3)no1,-1%
CC(c1cccs1)N(Cc1ccco1)C(=S)Nc1ccc(F)c(Cl)c1 (stereo not drawn),-3%
O=C(CN1CCN(C(=O)c2ccccc2)CC1)Nc1cccc(S(=O)(=O)N2CCCC2)c1,-2%
Cc1ccc(C)c(N=Cc2c(O)c3ccccc3oc2=O)c1,-10%
CC(=O)c1cccc(S(=O)(=O)N(CCCO)Cc2cc3ccc(C)cc3[nH]c2=O)c1,-1%
N#CN1CCC(NS(=O)(=O)c2ccc(C(F)(F)F)cc2)C1 (stereo not drawn),6%
CC(=O)Nc1ccc(Nc2nc(C)c([N+](=O)[O-])c(Nc3ccc(NC(C)=O)cc3)n2)cc1,-1%
Nc1cc(N)nc(SCCN2CCCCC2)n1,1%
CC(C)[C@H](NC(=O)[C@@H]1CSCN1C(=O)OC(C)(C)C)C(=O)NCC1CCC(C(=O)O)CC1 (stereo partly drawn),-5%
Cc1cccc(C)c1NC(=S)NC1CCCCC1,-3%
Cn1c(C(=O)O)cnc1Sc1ncc(C(F)(F)F)cc1Cl,4%
COC(=O)[C@H](CCSC)NC(=O)Nc1ccc(C)c(C)c1,-1%
O=c1c2ccccc2nc(SCc2ccccc2)n1Cc1ccco1,-5%
COc1cc(C(=S)N2CCOCC2)cc(OC)c1OC(=O)c1ccccc1[N+](=O)[O-],-10%
Nc1c(-c2ccc(Cl)cc2)cnn1-c1cccc([N+](=O)[O-])c1,10%
COc1cc(C2C3=C(COC3=O)Oc3cc4c(cc32)OCO4)cc(OC)c1OC(C)=O (stereo not drawn),-3%
CC(=O)Nc1nc(C)c(Oc2ccc(C)cc2)c(=O)[nH]1,-2%
CCOc1ccc(S(=O)(=O)N2CCCCC2)cc1NC(=O)c1ccccc1,-16%
O=C(N/N=C1\C2CN3CCN(C2)CC1(c1ccccc1)C3)c1ccc(F)cc1,-2%
COc1ccc(CN(CC2CCC(C(=O)O)CC2)C(=S)Nc2cc(C)cc(C)c2)cc1 (stereo not drawn),9%

# Other results:
SMILES,VDR inhibitor
Cc1ccccc1C(=O)NCC(=O)OC(C)C(=O)NCc1ccco1 (stereo not drawn),-4%
CCC(=O)N/N=C/c1ccc(OS(=O)(=O)c2ccccc2)cc1,-27%
Cc1nn(C(C)C(=O)N2CCCC2)c(=O)c2nn(-c3ccccc3)c(C)c12 (stereo not drawn),-17%
O=C(C1=C[C@@H](c2coc3ccccc3c2=O)C[C@@H](OCc2ccc(CO)cc2)O1)N1CCN(Cc2ccccc2)CC1,-5%
CCOc1cc(C2Sc3ccccc3NC3=C2C(=O)c2ccccc23)ccc1O (stereo not drawn),-10%
CCN(CC)CCN1C(=O)C(=O)/C(=C(/O)c2c(C)[nH]c(C(=O)OC)c2C)C1c1ccc(OC)cc1 (stereo not drawn),-26%
Cc1cc(C(=O)NCCc2ccc(Cl)cc2)c2c(C)nn(-c3ccccc3)c2n1,3%
Clc1ccc(CNc2nc3ccccc3c3nc(-c4cccnc4)nn23)cc1,-2%
O=C(NCCCN1CCCC1)Nc1ccc(F)cc1,-9%
Cc1ccc2c(Cl)cc(Cl)c(OCC(=O)O)c2n1,-23%
COc1ccc(/C=N/Nc2nc(N3CCCCC3)nc(N3CCCCC3)n2)cc1[N+](=O)[O-],3%
CCC1Oc2ccc(C)cc2N(CC(=O)N2CCCC2)C1=O (stereo not drawn),-11%
O=C(NCc1ccco1)C(c1ccc(F)cc1)N(CC1CCCO1)C(=O)Cn1nnc2ccccc21 (stereo not drawn),9%
Oc1ccc(-c2nc(-c3ccc(F)cc3)c(-c3ccncc3)[nH]2)cc1,-15%&-20%

# High-throughput results: PubChem, National Center for Advancing Translational Sciences (NCATS)
